# GLA inh pH 4.5 = alpha-galactosidase A (human) inhibition, pH 4.5. P06280. purified enzyme, 4-MU-alpha-Gal fluorescence, pH 4.5. activity change, negative = inhibition, % at 105 µM. 230,000 tested, under 10 active; inconclusive = small, poorly fitted or top-dose-only inhibition, or a rising curve; inactive = flat fitted curve, though single readings scatter; no compound was filed as active;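 also: 0% = full activity with enzyme and -100% = basal without enzyme; dose as in the result columns while the protocol names 77 µM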
# Target sequence (P06280 whole entry, looked up): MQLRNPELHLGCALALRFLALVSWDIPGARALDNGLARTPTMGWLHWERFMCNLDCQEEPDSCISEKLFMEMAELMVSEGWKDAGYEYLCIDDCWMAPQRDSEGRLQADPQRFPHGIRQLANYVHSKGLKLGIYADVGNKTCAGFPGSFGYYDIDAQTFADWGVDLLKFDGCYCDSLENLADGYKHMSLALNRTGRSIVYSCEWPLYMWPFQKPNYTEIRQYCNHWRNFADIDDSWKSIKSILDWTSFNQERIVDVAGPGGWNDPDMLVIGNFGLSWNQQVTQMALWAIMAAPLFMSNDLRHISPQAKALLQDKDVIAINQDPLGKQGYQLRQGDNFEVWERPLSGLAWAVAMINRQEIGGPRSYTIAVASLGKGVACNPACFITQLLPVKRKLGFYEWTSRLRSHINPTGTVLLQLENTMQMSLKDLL
# Rango release inh = prevents RanGTP from dissociating the Rango-importin beta complex | O95149+P62826 | Biochemical FRET Rango-importin beta, RanGTP-induced dissociation | Potency, µM (highest dose often 46.1 µM), inactives show at the highest dose activity change, negative = inhibition | 0.071% of 340,000 active; active means falling FRET ratio curve, often poorly fitted, with flat reads before Ran was added; inconclusive means other falling curves, or compound fluorescence or quenching; inactive means flat or rising ratio curve;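 also: potency is read from the fitted curve at half-maximal effect; % of control where 0% means no effect; nearly all actives have a fitted effect of over 45% in size; -100% = wells without RanGTP and RCC1; the record marks most hits as doubtful in a second field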
#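 Quantitative HTS using a FRET biosensor: 0.1 uM Rango, 0.25 uM importin beta, 0.6 uM Ran, 2 mM GTP, 0.2 uM RCC1 final, PBS with DTT, Tween-20 and BSA. Post-read taken 45 min after Ran addition.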
# Rango-impB inh = Rango-importin beta binding inhibition; 0.031% of 340,000 active; Potency, µM (doses to about 92.2 µM), for the others: at the top dose inhibition of complex formation; AID 540263; Rango CFP/YFP FRET sensor + importin beta, 45 min; Q14974; active = rising FRET ratio curve, often small or poorly fitted; inconclusive = mostly compound fluorescence or quenching in the first reads; inactive = flat curves in all reads;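 also: potency is read from the fitted curve at half-maximal effect; 0% = DMSO wells and 100% = buffer wells lacking importin beta; nearly all actives have a fitted effect of over 15% in size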
#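 Inhibition scored from the CFP 486 nm/YFP 530 nm FRET ratio 45 min after adding 0.125 microM importin beta to 50 nM Rango biosensor preincubated 5 min with compound (room temperature, PBS with DTT, Tween-20, BSA). No-importin wells as positive control.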
# miR-21 FLuc = miR-21 reporter, rising signal | HeLa miR-21 FLuc reporter, luciferase, 48 h | 340,000 tested, under 10 active | Potency, µM (highest dose often 38.3 µM), for the others: at the highest dose reporter change, positive = more light; active = well fitted rising curve with a large enough effect; inconclusive = small, poorly fitted or top-dose-only effect; inactive = no such curve, though single readings can be large or run the other way;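 also: % of control where 0% means no effect; miR-21 action dims this reporter so a rising signal means less miR-21 action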
#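 HeLa miR-21-FLuc reporter line, endogenous miR-21; 2000 cells/well in DMEM/10% FBS; compound titration up to ~40uM final, 48 h, 37 degree Celsius; luciferase detection reagent, 15 min lysis, CCD luminescence.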
# Numbers without * were called inactive; u = inconclusive; x = no result given; [ ] = dose if it differs, or a comment.
SMILES,GLA inh pH 4.5,Rango release inh,Rango-impB inh,miR-21 FLuc
CC1CCCN(C(=O)c2ccncc2)C1 (configuration not stated),4,2%,6.8%,-11%
COc1ccc(S(=O)(=O)N2CCCCC2)cc1NC(=O)Cc1ccsc1,x,1%,2.1%,x
Cc1cc(-c2csc(Nc3ccccn3)n2)ccc1F,x,3%,3.2%,-13%
Cc1nonc1C(=O)N/N=C/c1ccc(O)cc1O,-7,u,u,2%
CN1C(=O)/C(=C/c2ccc(C(=O)Nc3ccc(O)cc3C(=O)O)cc2)SC1=S,x,0%,-0.6%,1%
Cn1nc(C(=O)NCc2ccc(F)cc2)c2c1-c1ccccc1S(=O)(=O)C2,x,0%,0.3%,5%
Cc1cc(NC(=O)CSc2nnc(C3COc4ccccc4O3)o2)no1 (configuration not stated),1,-1%,0.0%,-4%
CCN(CC(=O)N1CCN(Cc2ccccc2)CC1)S(=O)(=O)c1ccc(F)cc1,x,-4%,0.3%,-1%
COC(=O)c1ccc(CN2CCCC(CO)(Cc3ccccc3F)C2)cc1 (configuration not stated),x,-20%,-0.3%,2%
Nc1nc(Nc2ccc(Cl)cc2)nc2ccccc12,6,8%,2.8%,0%
COc1ccc(/C(O)=C2/C(=O)C(=O)N(CCCC(=O)O)C2c2ccc(OC)cc2)cc1 (configuration not stated),2,-15%,5.3%,-4%
CCC(=O)NC(C)C(c1cccs1)N1CCN(c2ccccc2)CC1 (configuration not stated),-4,5%,-0.5%,-1%
C=CC[C@H](CC(=O)N(CCO)Cc1ccccc1)C(=O)N[C@H](COC(=O)[C@@H](CC=C)Cc1ccc(F)cc1)C(C)(C)C,x,1%,-2.1%,x
O=S(=O)(Nc1ncccn1)c1ccc(NC(=S)Nc2cccc(Cl)c2)cc1,-4,x,x,-9%
CCSC1=NCCN1S(=O)(=O)c1ccc2ccccc2c1,3,0%,-0.4%,2%
Cc1cccn2c(=O)c3cc(C(=O)NCC4CCCO4)c(=N)n(CC4CCCO4)c3nc12 (configuration not stated),x,u,u,4%
Cc1ccc(S(=O)(=O)Nc2nc(N)n(-c3ccccc3)n2)cc1,1,-6%,-2.7%,1%
COc1ccc(N2CC(C(=O)NCCN3C(=O)S/C(=C\c4cccnc4)C3=O)CC2=O)c(OC)c1 (configuration not stated),x,-1%,3.7%,x
O=C(CSc1nnnn1-c1ccccc1)NC1CCCc2ccccc21 (configuration not stated),4,-12%,0.3%,-3%
O=c1[nH]cnc2cc(-c3ccccc3)sc12,-4,-2%,-1.6%,-33%
Cc1cccc(NC(=O)CCC2CCN(C(=O)c3ccc(C)s3)CC2)c1,x,2%,-0.4%,-4%
O=C(Cc1ccc(Cl)cc1)N1CCN(c2ccccc2)CC1,x,12%,0.4%,-16%
COc1ccccc1-n1cnnc1SCC(=O)N1CCN(C(=O)c2ccco2)CC1,-2,1%,2.0%,1%
Cc1ccc(N=C2S/C(=C\c3cn(CC(=O)O)c4ccccc34)C(=O)N2C)cc1,-1,u,u,-30%
CC(=O)NC12CC3CC(C1)CC(C(=O)Nc1nc4c(C)cccc4s1)(C3)C2,x,0%,-1.2%,6%

# 4 of the compounds above, field by field:
CCN(CC(=O)N1CCN(Cc2ccccc2)CC1)S(=O)(=O)c1ccc(F)cc1
  GLA inh pH 4.5: x
  Rango release inh: -4%
  Rango-impB inh: 0.3%
  miR-21 FLuc: -1%
CC1CCCN(C(=O)c2ccncc2)C1 (configuration not stated)
  GLA inh pH 4.5: 4
  Rango release inh: 2%
  Rango-impB inh: 6.8%
  miR-21 FLuc: -11%
COc1ccccc1-n1cnnc1SCC(=O)N1CCN(C(=O)c2ccco2)CC1
  GLA inh pH 4.5: -2
  Rango release inh: 1%
  Rango-impB inh: 2.0%
  miR-21 FLuc: 1%
Cc1cccc(NC(=O)CCC2CCN(C(=O)c3ccc(C)s3)CC2)c1
  GLA inh pH 4.5: x
  Rango release inh: 2%
  Rango-impB inh: -0.4%
  miR-21 FLuc: -4%

# Back to the main list, repeating the 3 entries before the break.
SMILES,GLA inh pH 4.5,Rango release inh,Rango-impB inh,miR-21 FLuc
COc1ccccc1-n1cnnc1SCC(=O)N1CCN(C(=O)c2ccco2)CC1,-2,1%,2.0%,1%
Cc1ccc(N=C2S/C(=C\c3cn(CC(=O)O)c4ccccc34)C(=O)N2C)cc1,-1,u,u,-30%
CC(=O)NC12CC3CC(C1)CC(C(=O)Nc1nc4c(C)cccc4s1)(C3)C2,x,0%,-1.2%,6%
CCC1(CC)C(=O)NC(=O)NC1=NCCc1c[nH]c2ccccc12,3,3%,0.8%,-2%
COc1cccc(C(=O)Nc2ncc3c(n2)CC(C)CC3=O)c1 (configuration not stated),3,4%,-1.6%,-30%
C#CCNC(=O)C1=C[C@@H](c2ccc3c(c2)OCO3)C[C@@H](OCc2ccc(CO)cc2)O1,x,u,0.3%,x
CC(CC(=O)Nc1nnc(CC(C)(C)C)s1)c1ccccc1 (configuration not stated),x,14%,-0.6%,-4%
COc1c(F)c(F)c(C(=O)Nc2ccccc2N2CCN(C(=O)C(C)C)CC2)c(F)c1F,2,10%,-4.3%,-3%
CN(Cc1ccccc1)C(=O)CNC(=O)C12CC3CC(CC(C3)C1)C2,x,3%,-1.9%,x
CCCOc1cccc(C(=O)N(Cc2ccc(OC)c(OC)c2)C2CCS(=O)(=O)C2)c1 (configuration not stated),5,8%,1.0%,-4%
O=c1c2c(nc3nc[nH]n13)CCC2,5,-10%,1.3%,0%
COc1ccc(/C=N/S(=O)(=O)c2ccc(C)cc2)cc1,-2,-1%,-0.6%,-2%
c1ccc2[nH]c(CSc3nc4ccccc4s3)nc2c1,-14,u,-4.1%,-23%
O=C(C1=C(O)C(=O)N(Cc2ccccc2)C1c1cccnc1)c1ccco1 (configuration not stated),x,26%,u,x
CCOC(=O)C1CCN(CC(=O)Nc2ccc(S(=O)(=O)N3CCC(C)CC3)cc2)CC1,x,20%,4.8%,9%
COc1cc(/C=C/C(=O)O)cc(S(=O)(=O)Nc2ccc3[nH]c(=O)[nH]c3c2)c1OC,x,-11%,-3.7%,-4%
COc1ccc2cnn(-c3ccc(OC(F)(F)F)cc3)c(=O)c2c1OC,-6,1%,-2.8%,1%
Nc1ncnc2[nH]c(=S)[nH]c12,x,-15%,-1.3%,x
Cn1cnc2c1c(=O)n(Cc1cccc(F)c1)c(=O)n2C,x,11%,-2.1%,-8%
Cn1c(=O)c2cc3ccc(Cl)cc3nc2n(C)c1=O,7,11%,1.6%,0%
COc1cc(/C=C2/SC(=O)N(Cc3ccccc3)C2=O)ccc1OCc1ccncc1,-12,-20%,-0.5%,-2%
O=C(NCC1CCCO1)c1ccc([N+](=O)[O-])o1 (configuration not stated),x,12%,-0.5%,15%
O=C(NCc1ccccc1F)C1CCCN(c2cnccn2)C1 (configuration not stated),x,-15%,0.5%,0%
O=C(COc1c(F)c(F)cc(F)c1F)NNC(=O)CC1CCS(=O)(=O)C1 (configuration not stated),x,2%,-1.0%,x
c1ccc2[nH]c(SCCN3CCOCC3)nc2c1,2,-2%,2.2%,-31%
O=C(Nc1ccccc1N1CCCC1)c1ccc(N2CCCC2=O)cc1,x,20%,-0.6%,x
COc1ccc(-n2c(C)nc3c(cnn3-c3ccc(C)c(C)c3)c2=O)cc1,3,-5%,4.0%,-18%
O=C(Nc1ccc2c(c1)CCC2)c1ccc(F)cc1,-5,8%,0.2%,-21%
# Next section
SMILES,GLA inh pH 4.5,Rango release inh,Rango-impB inh,miR-21 FLuc
CON1C(=O)CN(C(C)=O)C1c1ccc(Cl)cc1Cl (configuration not stated),3,10%,-2.3%,0%
O=c1nc(-c2ccccc2)c2cc(Br)ccc2[nH]1,x,-1%,-1.2%,1%
COC(=O)c1sccc1-n1cccc1C(=O)C(=O)N1CCCCC1,4,1%,-0.6%,-1%
CCc1ccc(CNC(=O)CCCn2c(=O)c3cccn3c3cccnc32)cc1,x,-4%,-1.3%,-10%
c1ccc2[nH]c(CN3CCCCCC3)nc2c1,-1,-4%,0.2%,-16%
CC(C)CN(C(=O)c1cc([N+](=O)[O-])cc([N+](=O)[O-])c1)C1CCS(=O)(=O)C1 (configuration not stated),x,-10%,-0.2%,x
CCOC(=O)c1cccc(N2C(=O)C3C(C2=O)C2C=CC3C23CC3)c1 (configuration not stated),4,-3%,-0.6%,-4%
COc1ccc(S(=O)(=O)Nc2ccc(F)c(Cl)c2)cc1OC,-3,15%,4.0%,-4%
CC(=O)Oc1c(Cl)cc(N(C(C)=O)S(=O)(=O)c2ccccc2)c2ccccc12,x,15%,-1.0%,x
COC(=O)c1ccc(OC(=O)CCS(=O)(=O)c2ccc(C)cc2)cc1,x,16%,1.7%,x
O=S(=O)(Nc1cccc(CCc2ccccn2)c1)c1ccc(Cl)cc1,-4,-6%,-1.6%,9%
CN(C)C(=O)CSc1nnc(CCCCCNC(=O)OC(C)(C)C)o1,-6,7%,-0.2%,-4%
CSc1nsc(SC)c1C(=O)Nc1ccc(C(C)(C)C)cc1,-8,11%,0.1%,-22%
CC(C)(C)C1(O)CC(C(F)(F)F)=NN1C(=O)CCc1ccccc1 (configuration not stated),-17,28%,0.1%,1%
CCCCn1nnc(NC(=S)NC(=O)c2ccc(-c3cccc(Cl)c3Cl)o2)n1,2,9%,-0.5%,-14%
CCN1CCN(C(C(=O)NC2CCCC2)c2ccc(Cl)cc2)CC1 (configuration not stated),-2,30%,0.0%,-2%
COC(=O)[C@H](CCSC)NC(=O)NCCC1=CCCCC1,0,-13%,-1.0%,-8%
Cc1cc(C)c(C)c(OCC(=O)NCC2CCCO2)c1 (configuration not stated),-7,17%,0.1%,-2%
COCCN(C(=O)COC(=O)c1ccc(C=O)cc1)c1c(N)n(Cc2ccccc2)c(=O)[nH]c1=O,x,-12%,5.7%,-3%
O=C(COc1ccccc1Cl)c1ccc2c(c1)CCCC2,5,3%,4.8%,-55%
O=C(C(Cc1ccc(Cl)cc1)NS(=O)(=O)c1ccccc1)N1CC[C@@]2(O)CCCC[C@H]2C1 (some centres not stated),-8,-5%,12%,1%
CC1CCCC(C)N1C(=O)CN1C(=O)c2ccccc2S1(=O)=O (configuration not stated),x,-9%,2.0%,x
CC(C)n1cnnc1SCC(=O)Nc1cccc(S(=O)(=O)N(C)c2ccccc2)c1,-5,-9%,-1.8%,7%
O=C(CSc1ccc2nnc(-c3ccncc3)n2n1)NCC1CCCO1 (configuration not stated),2,1%,-2.0%,1%
Cc1c(C(=O)NC2CCCc3ccccc32)cccc1[N+](=O)[O-] (configuration not stated),x,52%,4.5%,3%
# The results go on:
SMILES,GLA inh pH 4.5,Rango release inh,Rango-impB inh,miR-21 FLuc
O=C(NC(=O)c1cccc(OC(F)(F)C(F)F)c1)OC1CCS(=O)(=O)C1 (configuration not stated),-3,37%,-0.8%,1%
Cc1cc(OCC(=O)N(Cc2ccccc2)C2CCS(=O)(=O)C2)ccc1Cl (configuration not stated),x,5%,0.3%,-5%
O=c1[nH]c(=O)c2nc3c4ccccc4c4ccccc4c3nc2[nH]1,2,u,u,-2%
Cc1cccc(-c2ccc3c(c2)C2CC3CCN2C(=O)OCc2ccccc2)c1 (configuration not stated),x,0%,-1.8%,x
Cc1ccc(C(=O)NCC2(c3ccccc3)CCCC2)cc1,1,11%,-4.5%,0%
O=C(C1CCCN1S(=O)(=O)c1ccc(Cl)cc1)N1CCCCC1 (configuration not stated),x,-7%,u,4%
CCC(=O)N(Cc1cc2cc(OC)ccc2[nH]c1=O)c1cccc(C)c1,4,1%,-1.9%,0%
CCOc1ccc(-n2c(C)cc(C(=O)CCl)c2C)cc1,-7[21.1 µM],0%,0.7%,18%
COc1ccc(NS(=O)(=O)c2cccc(C(=O)NNC(=O)c3ccc(NC(C)=O)cc3)c2)cc1,x,10%,-1.5%,x
O=C(Nc1cccc2ccccc12)c1nn(C23CC4CC(CC(C4)C2)C3)cc1[N+](=O)[O-],-4,-9%,-2.0%,-7%
COc1cc(C2NCCC(=O)C2(C)C)cc(OC)c1OC (configuration not stated),-5,1%,2.6%,13%
COc1ccc(/C=C/C(=O)NCCOc2ccccc2OC)cc1,-15,0%,-3.5%,-8%
COc1ccccc1S(=O)(=O)CC(O)COc1ccc(C#N)cc1 (configuration not stated),6,-3%,3.2%,-5%
CCOC(=O)c1cc(-c2ccc(Cl)s2)[nH]n1,2,-7%,-0.3%,0%

# Compound activity as filed in PubChem BioAssay.

# The list is partial; the hit share may differ from the screen's.
